TRPML1 inh – human mucolipin-1 channel inhibition; TRPML1-inducible cells, Ca2+ dye fluorescence, FDSS; hits give low values; inhibition of EC80 agonist-evoked calcium signal; activity change, negative = inhibition, % (test concentration not listed); 390,000 compounds, 0.02% hits; AID 624415; in the data active means activity change below about -50%; inconclusive means about -30% to -50%; inactive means above about -30%;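 further: stimulus is agonist 54-4 at its EC80 concentration; on the % scale 0 is the no-effect control and ±100 the full control effect; compound concentration not given in the record; the text of the record puts the active cut at -80%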
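TRPML1-DL cells, Tet-induced overnight (~16 h, 37 °C) at 1,500 cells/well, were loaded with Ca8 no-wash dye plus quencher for 45-90 min at room temperature. Compounds were pinned during FDSS kinetic reading; agonist 54-4 at EC80 (4 uM final) then added.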
gsp ag – gsp mutant agonism. gsp mutant cells, cAMP HTRF, 30 min; control for the full effect not named in the record. Potency, µM (doses to about 76.9 µM), without a hit: top-dose activation (cAMP increase), most hits filed as activators. 340,000 compounds, 0.13% hits. AID 624287; active = well fitted activation curve with a large enough effect; inconclusive = small, poorly fitted or top-dose-only effect, or another doubt; inactive = no such curve, though single readings can be large or run the other way; cell line not stated here;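 further: phosphodiesterase inhibitor Ro 20-1724 added with compounds to block cAMP breakdown; potency means the concentration at half of the fitted maximal effect; nearly all actives have a fitted effect of over 60% in size; about a fifth of the inactives were tested at one dose only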
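Cells in DMEM/10% FBS with G418 were pretreated with compounds in DMSO plus […] (300 uM stock) for 30 min at 37C. cAMP was measured by HTRF (cAMP-d2 plus anti-cAMP antibody-K) after 30 min at room temperature.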
gsp antagonist – gsp mutant antagonism; Potency, µM (doses to about 76.9 µM), for the others: top-dose activity change, negative = inhibition, most hits filed as inhibitors; 340,000 compounds, 0.4% hits; gsp-mutant cells, cAMP HTRF, 30 min; control for the full effect not named in the record; active = falling curve of any shape with a large fitted effect; inconclusive = falling curve, mostly with a smaller effect; inactive = flat or rising curve; cell line not stated here;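 further: intracellular cAMP measured with PDE inhibitor Ro 20-1724 present during compound exposure; potency means the concentration at half of the fitted maximal effect; on the % scale 0 is the no-effect control and ±100 the full control effect; nearly all actives have a fitted effect of over 65% in size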
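HTRF cAMP measurement after 30 min RT detection following 30 min, 37C compound treatment alongside […] (added as 300 uM solution) in G418-selected cells seeded at 2000/well and grown 16–24 h.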
TRPV1 PAM – potentiators of human vanilloid receptor 1 (TRPV1). Q8NER1. TRPV1-expressing cells, Fluo-8 calcium influx, capsaicin EC20 potentiation; host cell line not named in the record; control for the full effect not named in the record. potentiation, % at 8.33 µM. 320,000 compounds, 0.02% hits. AID 540277; active means potentiation above 80%; inconclusive means 30% to 80%; inactive means below 30%; further: 0% is about no effect
Target sequence (Q8NER1 whole entry, looked up): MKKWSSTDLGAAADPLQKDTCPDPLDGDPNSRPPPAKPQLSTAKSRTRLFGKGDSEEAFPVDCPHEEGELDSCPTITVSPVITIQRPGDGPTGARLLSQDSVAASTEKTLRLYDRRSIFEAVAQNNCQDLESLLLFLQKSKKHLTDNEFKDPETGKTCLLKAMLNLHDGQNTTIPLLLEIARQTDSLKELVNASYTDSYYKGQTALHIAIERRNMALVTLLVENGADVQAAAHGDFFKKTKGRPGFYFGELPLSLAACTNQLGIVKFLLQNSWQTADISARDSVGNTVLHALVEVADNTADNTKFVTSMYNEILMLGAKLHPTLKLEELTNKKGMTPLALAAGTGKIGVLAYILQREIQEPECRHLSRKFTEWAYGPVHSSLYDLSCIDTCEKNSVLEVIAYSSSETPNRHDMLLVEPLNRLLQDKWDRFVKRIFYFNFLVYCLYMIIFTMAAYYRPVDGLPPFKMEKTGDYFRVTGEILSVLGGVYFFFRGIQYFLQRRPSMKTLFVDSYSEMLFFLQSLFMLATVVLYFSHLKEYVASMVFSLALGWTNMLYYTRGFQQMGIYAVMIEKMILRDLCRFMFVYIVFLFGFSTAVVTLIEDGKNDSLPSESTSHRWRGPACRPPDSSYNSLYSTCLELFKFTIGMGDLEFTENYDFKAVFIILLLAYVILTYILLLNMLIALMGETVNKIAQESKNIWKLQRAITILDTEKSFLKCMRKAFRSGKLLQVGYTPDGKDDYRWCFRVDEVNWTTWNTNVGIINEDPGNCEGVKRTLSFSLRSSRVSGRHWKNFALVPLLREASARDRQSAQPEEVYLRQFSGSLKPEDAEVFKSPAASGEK
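Cells expressing TRPV1 were dye-loaded with Fluo-8 and read kinetically: 10 s baseline, 3 min after compound (agonist portion), then 2 min after EC20 capsaicin (allosteric enhancer portion). Calcium-bound dye fluorescence at 480/520 nm.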
Menin MLL FP FL – menin-MLL binding inhibition, fluorescein peptide. Fluorescence polarization, fluorescein-MLL peptide displacement from menin. FP activity change, % at 61.4 µM. 290,000 tested, under 10 active; inconclusive = falling polarisation curve, or a change in total fluorescence; inactive = total fluorescence flat and polarisation flat or rising; no compound was filed as active; the % refers to the polarisation; negative = inhibition;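 further: % of control where 0% means no effect; inhibitors lower the polarisation; unlabelled MLL peptide was the positive control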
ClpP mod – qHTS Assay for Activators of ClpP. ATP-dependent Clp protease proteolytic subunit (Bacillus subtilis (strain 168)), P80244. purified B. subtilis ClpP, FRET peptide cleavage, 20 min. AID 651965, 2013. 340,000 compounds, 1.9% hits. Potency, µM (series often up to 57.5 µM), inactives show at the top dose activity change, negative = active; active = well fitted falling curve with a large enough effect; inconclusive = small, poorly fitted or top-dose-only effect; inactive = no such curve, though single readings can be large or run the other way; further: potency means the concentration at half of the fitted maximal effect; the source files actives as falling curves though it sought activators and does not explain the sign; nearly all actives have a fitted effect of over 65% in size; many hits overshoot -100%
Target sequence (P80244 whole entry, looked up): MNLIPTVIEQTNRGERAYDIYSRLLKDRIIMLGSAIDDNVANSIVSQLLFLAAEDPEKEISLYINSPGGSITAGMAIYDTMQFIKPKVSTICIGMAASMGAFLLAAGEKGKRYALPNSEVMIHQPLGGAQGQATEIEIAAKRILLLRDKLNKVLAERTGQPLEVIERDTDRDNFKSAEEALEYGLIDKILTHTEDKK
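ClpP 10 microg/mL final, pH 8 Tris/KCl buffer with BSA, glycerol, Tween-20; compound pinned in; FRET-FV substrate; RT 20 min; Ex320/Em430; ΔFRET vs ADEP 5.8 microM, DMSO, no enzyme.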
Sfp PPTase inh – Sfp phosphopantetheinyl transferase inhibition. AID 1490. 310,000 compounds, 3.5% hits. Q9F4F7. Biochemical Sfp PPTase activity, qHTS. Potency, µM, inactives show max response, negative = inhibition, most hits filed as inhibitors; active means well fitted inhibition curve with a large enough effect; inconclusive means small, poorly fitted or top-dose-only effect, or another doubt; inactive means no such curve, though single readings can be large or run the other way;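 further: the enzyme is Sfp with the accession as filed and its product quenches rhodamine fluorescence; potency means the concentration at half of the fitted maximal effect; 0% = enzyme reaction without inhibitor and -100% = no enzyme wells; top concentration of the series not given in the record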
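Compounds were incubated with enzyme (final 15 nM) for 15 min at room temperature before substrate addition started the reaction. Fluorescence at 525 nm excitation, 598 nm emission was recorded immediately and after 30 minutes.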
Starred values were filed as active, the others as inactive; ? = inconclusive; . = not tested or not shown; [ ] = dose if it differs, or a comment.

compound	TRPML1 inh	gsp ag	gsp antagonist	TRPV1 PAM	Menin MLL FP FL	ClpP mod	Sfp PPTase inh
Cn1c(SCc2cccc(Br)c2)nnc1-c1ccccn1	9	-3%[15.4 µM]	-2%	-17	-0.4	.	4%
O=c1[nH]c(CSc2ccccc2)nc2c1oc1ccccc12	-7	-10%	-3%	-1	-0.4	-0.9%	10%
CCCCN1C(=N)N([C@@H](C)CN2CCC[C@H]2CN2C(N)=NC[C@H]2CC(C)C)C[C@H]1Cc1ccccc1	-5	.	1%	.	.	-0.7%	.
COc1ccc(C(CNC(=O)c2cc(S(=O)(=O)NCc3ccco3)ccc2C)N(C)C)cc1 (configuration not stated)	-2	-5%	0%	.	.	-2.2%	.
COc1cccc(CC(=O)NCC2COc3ccccc3O2)c1OC (configuration not stated)	23	-31%[inhibitor]	-6%	8	5.5	-2.5%	9%
CC(C)[C@H](NC(=O)c1c(F)cccc1F)C(=O)OCC(=O)NNC(=O)c1ccccc1	-2	-38%[inhibitor]	.	.	.	-1.0%	.
O=C1CCCc2cc3c(cc21)CC1(C3)Cc2cc3c(cc2C1)C(=O)CCC3	16	-6%	1%	-14	-0.4	0.1%	-18%
COC(=O)c1sc(=S)n(-c2ccccc2)c1N	-13	-1%	14%	11	-1.7	-0.3%	32µM*

Later entries
compound	TRPML1 inh	gsp ag	gsp antagonist	TRPV1 PAM	Menin MLL FP FL	ClpP mod	Sfp PPTase inh
COc1ccccc1CNC(=O)COC(=O)c1cccc(-n2cnnn2)c1	13	17%	-10%	-3	.	-0.9%	.
Cc1cc(C(=O)CCC(=O)N2CCN(c3ccccc3)CC2)c(C)s1	3	-7%[15.4 µM]	-4%	6	.	.	.
CC(Sc1cccc2cccc(C(=O)O)c12)C(=O)O (configuration not stated)	-29	-8%	5%	-4	-8.0	14µM*	-7%
CC(C)(O)c1[nH]c2cc(C(F)(F)F)ccc2c1C(C)(C)O	1	6%	2%	4	1.9	-10%	13%
CCN(CC)S(=O)(=O)c1ccc2c(c1)c(=O)c(C(=O)N1CCN(c3ccccn3)CC1)cn2C	-11	?	0%	15	3.1	-1.0%	2%
Cc1ccc(S(=O)(=O)N2CCCCC2C(=O)N2CCN(C)CC2)cc1 (configuration not stated)	-1	-19%	7%	3	0.3	1.6%	-13%
CCC(C)(C)n1nnnc1CN1CCN(c2ccc(OC)cc2)CC1	-3	3%	-4%	0	2.0	-7.7%	-6%
CC(=O)N1CCN(c2ccccc2NC(=O)c2cccs2)CC1	-6	9%	-12%	18	.	-1.4%	2%

Whole records, looked up by structure. Values in the order: TRPML1 inh | gsp ag | gsp antagonist | TRPV1 PAM | Menin MLL FP FL | ClpP mod | Sfp PPTase inh
CC(C)(O)c1[nH]c2cc(C(F)(F)F)ccc2c1C(C)(C)O as listed: 1 | 6% | 2% | 4 | 1.9 | -10% | 13%
COc1ccccc1CNC(=O)COC(=O)c1cccc(-n2cnnn2)c1 as listed: 13 | 17% | -10% | -3 | . | -0.9% | .

Next section:
compound	TRPML1 inh	gsp ag	gsp antagonist	TRPV1 PAM	Menin MLL FP FL	ClpP mod	Sfp PPTase inh
CN(C(=O)c1cccs1)c1ccc(OCC(=O)Nc2ccc(C(=O)O)cc2)cc1	-15	-6%	7%	-7	0.2	-2.5%	29%
Cc1cccnc1NC(=S)NC(=O)/C=C/c1ccco1	21	?	-23%	3	?	3.5%	-10%
C=CC(=O)N1C/C(=C/c2ccc(Cl)cc2)C(=O)/C(=C\c2ccc(Cl)cc2)C1	76	29%	4%	.	.	5.5%	.
CC(C)c1nc(NCCN2CCOCC2)c(C#N)c2c1COC(C)(C)C2	-10	-39%[inhibitor]	10%	28	-2.9	-16%	3%
O=C(NC1CCCC1)C(c1ccsc1)N(C(=O)Cc1cccs1)c1ccccc1 (configuration not stated)	-7	-55%[inhibitor]	-1%	-14	0.3	0.7%	-2%
CCCCNC(=O)C(NS(=O)(=O)c1cccc2nsnc12)c1ccccc1 (configuration not stated)	7	-21%	0%	3	-0.4	-0.1%	7%
Cc1ccc(S(=O)(=O)Nc2ccc(-n3cnnn3)cc2)c(C)c1	35	-6%	-5%	17	.	0.6%	.
COc1ccc(-c2cc(-c3ccccc3)c(C#N)c(S(C)(=O)=O)n2)cc1	10	-30%	18%	7	0.9	19%	15%

(next part)
compound	TRPML1 inh	gsp ag	gsp antagonist	TRPV1 PAM	Menin MLL FP FL	ClpP mod	Sfp PPTase inh
CCn1c(Sc2ccc(N)cc2Cl)nc2ccccc21	-3	7%	7%	11	1.5	0.1%	4%
CCOC(=O)c1csc(CCNC(=O)c2oc3c(Cl)cc(C)cc3c2C)n1	4	-1%[15.4 µM]	-15%	3	-6.0	-7.1%	-19%
Cc1cc(C(=O)N/N=C/c2ccc(O)c([N+](=O)[O-])c2)c(C)n1-c1ccc(F)cc1	4	-35%[inhibitor]	-1%	-15	0.3	0.2%	-10%
COc1cc(C)c(CNC2CCCCC2)cc1C	-6	-7%	6%	9	1.4	0.2%	-14%
CCN(c1cccc(C)c1)S(=O)(=O)c1ccc2c(c1)CCN2C(C)=O	-4	1%	?	-32	-2.3	-0.2%	9%
CCOC(=O)c1ccc(N2CCCCC2)c(NS(=O)(=O)c2cccc(C(F)(F)F)c2)c1	-19	1%	-10%	-35	1.6	-0.9%	21%
O=C(O)CSc1nc2ccccc2n1C1CCCCC1	-1	-8%[15.4 µM]	-10%	0	1.3	.	9%
O=C(c1cnc2ccccn2c1=O)N1CCc2ccccc21	22	14%	2%	-30	0.3	-0.4%	22%

(next part)
compound	TRPML1 inh	gsp ag	gsp antagonist	TRPV1 PAM	Menin MLL FP FL	ClpP mod	Sfp PPTase inh
Nc1ccccc1Oc1c(F)c(F)c(Oc2ccccc2N)c(F)c1F	45	2%[15.4 µM]	-24%	3	3.8	.	-14%
CCc1ccc(OCCNC(=O)OCc2ccccc2)cc1	-14	?	-4%	-8	.	0.9%	2%
Cn1c(=O)cc(OCCCC(=O)Nc2ccccn2)c2ccccc21	3	-73%[inhibitor]	4%	22	-0.2	-2.8%	4%
COc1ccc(OC)c(C2c3[nH]c4ccccc4c3C[C@H]3C(=O)N(C4CC4)CC(=O)N23)c1 (some centres not stated)	-3	-5%	1%	3	-8.5	0.7%	7%
OC1Cc2ccccc2C1Nc1cccc(C(F)(F)F)c1 (configuration not stated)	7	?	-4%	.	.	-1.9%	.
CSCCC(NS(=O)(=O)c1ccc2c(c1)oc(=O)n2C)C(=O)NC1CCCCC1 (configuration not stated)	3	?	8%	3	-0.3	0.4%	-13%
COc1ccc(C(=O)CSc2nnc(CNc3ccc(F)cc3)o2)cc1	0	13%[15.4 µM]	-9%	-12	-5.6	.	15%
COCCn1c(SCC(=O)Nc2cccc(C)c2)nnc1C(C)C	-6	0%	8%	2	2.6	0.4%	24%

(next part)
compound	TRPML1 inh	gsp ag	gsp antagonist	TRPV1 PAM	Menin MLL FP FL	ClpP mod	Sfp PPTase inh
COc1ccccc1OCC(=O)OCC(=O)NCCN1C(=O)CSC1=O	-16	-42%[inhibitor]	10%	15	4.6	-3.5%	11%
COc1ccc(NC(=O)CN2C(=O)C(=O)N(C3CCCC3)C2=O)c(OC)c1	7	8%	4%	.	.	0.2%	.
O=C(O)COc1ccccc1/C=C1\SC(=S)N(c2cccnc2)C1=O	-4	4%[15.4 µM]	-2%	-3	?	.	-21%
OCCC1CN(Cc2cccs2)CCN1Cc1ccccc1 (configuration not stated)	-5	19%[15.4 µM]	3%	-4	3.9	.	13%
CCC(=O)N(Cc1ccco1)c1nc(-c2ccccc2)cs1	-19	9%	-18%	1	-1.3	-0.3%	8%
Cc1c(Cl)cccc1NC(=O)CSc1nncn1-c1cccnc1	15	12%[15.4 µM]	0%	-5	-3.5	.	11%
Cc1c(C)c2ccc(OCC(=O)NCCCn3ccnc3)cc2oc1=O	-2	-16%	-8%	-5	-2.9	4.3%	-2%
O=C(N/N=C/c1cc(Cl)cc([N+](=O)[O-])c1O)c1ccc2c(c1)OCO2	20	-5%	-19%	?	14	-1.3%	22%

(cont.)
compound	TRPML1 inh	gsp ag	gsp antagonist	TRPV1 PAM	Menin MLL FP FL	ClpP mod	Sfp PPTase inh
COc1ccc(OCCC(=O)OCC(=O)NC2CCCCCCC2)cc1	5	?	10%	-19	3.8	0.3%	13%
CCCCCCCCc1nnc(N)s1	1	-28%	4%	-16	1.9	.	3%
N#Cc1c2n(c(=S)n(-c3ccc(F)cc3)c1=O)CCCCC2	23	1%	-4%	7	1.1	.	7%
CCCCNC(=O)CNC(=S)N(Cc1ccccc1)Cc1cccs1	3	8%[15.4 µM]	-4%	-3	0.8	.	6%
CCC(C)C(=O)C(=O)N1CCC(n2nccc2NC(=O)CCOc2ccccc2)CC1 (configuration not stated)	13	-43%[inhibitor]	.	.	.	-1.0%	.
COc1ccc(C2NC(=O)CS2)cc1OC (configuration not stated)	1	11%	12%	28	-0.6	-1.7%	17%
CCC(=O)N1N=C(c2ccc(NS(=O)(=O)c3ccccc3)cc2)CC1c1ccco1 (configuration not stated)	14	5%	32µM*	.	.	-6.0%	.
COc1ccc(CNC(=O)CN2CCC(n3nnc4cc(F)ccc43)CC2)cc1	18	15%[15.4 µM]	-24%	3	-7.3	0.1%	17%
Cc1ccc(S(=O)(=O)NCC(C)NS(=O)(=O)c2ccccc2[N+](=O)[O-])cc1 (configuration not stated)	4	-80%[inhibitor]	-7%	8	0.5	-0.7%	17%
CCc1ccc(OCC(=O)N/N=C(\C)c2ccc3c(c2)OCCO3)cc1	22	-1%	1%	-14	-1.4	-1.4%	56µM*

Screening data deposited in PubChem by National Center for Advancing Translational Sciences (NCATS).

The order is random; about 4.9% have a hit in one of these screens.
